NS1 inh: influenza NS1 inhibition | S. cerevisiae slowed by influenza A NS1, growth recovery by OD600 | 270,000 tested, 0.4% active | AID 2326 | Potency, µM (highest dose often 46.1 µM), without a hit: top-dose activity, positive = more growth; active means well fitted rising curve with a large enough effect; inconclusive means small, poorly fitted or top-dose-only effect; inactive means no such curve, though single readings can be large or run the other way; note: nearly all actives have a fitted effect of over 50% in size
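Compounds were scored for reversing the slow growth caused by influenza A NS1 in S. cerevisiae, measured by optical density at 600 nm. Assay medium contained 2% galactose at pH 6.0; NS1-free yeast of the same strain were the positive control.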
StopGo reporter: FMDV 2A StopGo reporter, luciferase signal | human cells with a luciferase reporter of 2A StopGo recoding; control for the full effect not named in the record | Potency, µM (highest dose often 57.9 µM), for the others: at the top dose signal change, negative = less light | 410,000 tested, 1.2% active | AID 1159524; active = well fitted falling curve with a large enough effect; inconclusive = small, poorly fitted or top-dose-only effect; inactive = no such curve, though single readings can be large or run the other way; tested in HEK293T cells; note: % is set by controls: 0 for no effect and ±100 for the full control effect; nearly all actives have a fitted effect of over 45% in size; luciferase light after 4 h
Cruzain noTriton: inhibitors of Trypanosoma cruzi cruzain without detergent; 200,000 tested, 2.3% active; AID 1476; Potency, µM, for the others: max response, negative = inhibition, hits mostly inhibitors; purified cruzain, Z-FR-AMC fluorescence, no detergent;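 note: plate controls were enzyme without inhibitor for no effect and buffer without enzyme for full effect; nearly all actives have a fitted effect of over 40% in size; top concentration of the series not given in the record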
Target sequence (P25779 123-467 limits assumed): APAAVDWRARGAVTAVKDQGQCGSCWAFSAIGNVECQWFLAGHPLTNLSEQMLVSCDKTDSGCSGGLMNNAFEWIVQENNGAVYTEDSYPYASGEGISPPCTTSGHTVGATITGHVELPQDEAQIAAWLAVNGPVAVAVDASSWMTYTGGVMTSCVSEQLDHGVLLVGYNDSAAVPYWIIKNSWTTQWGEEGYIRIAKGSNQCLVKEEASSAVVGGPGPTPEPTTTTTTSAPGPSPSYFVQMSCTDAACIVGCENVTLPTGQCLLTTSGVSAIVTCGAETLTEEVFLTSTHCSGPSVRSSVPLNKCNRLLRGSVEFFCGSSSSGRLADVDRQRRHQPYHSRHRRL
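Purified cruzain at 1.5 nM, pre-incubated 15 min with compound at room temperature in 100 mM sodium acetate pH 5.5, 5 mM DTT, 0.00005% Triton X-100. Reaction started with 2 uM Z-FR-AMC; AMC fluorescence increase over 60 s gives rate.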
SARS PLpro yeast: blocks SARS-CoV papain-like protease in a yeast assay | S. cerevisiae expressing SARS-CoV PLpro, growth rescue; control for the full effect not named in the record | Potency, µM (titrated, usually from 32.9 µM), for the others: top-dose activity, positive = growth rescue | 330,000 tested, 0.19% active | AID 485353; active means well fitted rising curve with a large enough effect; inconclusive means small, poorly fitted or top-dose-only effect; inactive means no such curve, though single readings can be large or run the other way; note: 0% is about no effect; nearly all actives have a fitted effect of over 55% in size; growth read by luminescence after 48 h
Lassa entry inh: inhibitors of Lassa virus binding or cell entry. 300,000 tested, 1.2% active. AID 540256. Lassa virus pseudotype entry inhibition, cell reporter; control for the full effect not named in the record. Potency, µM (series often up to 37.9 µM), inactives show at the highest dose activity change, negative = inhibition, usual class: inhibitors; active means well fitted inhibition curve with a large enough effect; inconclusive means small, poorly fitted or top-dose-only effect, or effect the other way; inactive means flat fitted curve, though single readings scatter; tested in HEK293 cells; note: % is set by controls: 0 for no effect and ±100 for the full control effect; nearly all actives have a fitted effect of over 50% in size; luciferase read-out
Marburg entry inh: inhibitors of Marburg virus binding or cell entry; Marburg virus pseudotyped entry inhibition, cell reporter; control for the full effect not named in the record; about a third of the inactives were read at about 46 µM; AID 540276; Potency, µM (top dose mostly 37.8 µM), for the others: at the highest dose activity change, negative = inhibition, hits mostly inhibitors; 300,000 tested, 1.8% active; active = well fitted inhibition curve with a large enough effect; inconclusive = small, poorly fitted or top-dose-only effect, or effect the other way; inactive = flat fitted curve, though single readings scatter; tested in HEK293 cells; about a fifth of its hits are not listed in these tables; note: % is set by controls: 0 for no effect and ±100 for the full control effect; luciferase read-out
Cruzain Triton: blocks cruzain activity in presence of Triton detergent; P25779; AID 1478; purified cruzain, Z-FR-AMC fluorescence, 0.01% Triton; 200,000 tested, 0.43% active; Potency, µM, inactives show max response, negative = inhibition, most hits filed as inhibitors;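 note: plate controls were neutral wells for no effect and buffer without enzyme for full effect; nearly all actives have a fitted effect of over 40% in size; top concentration of the series not given in the record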
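Steps: dispense cruzain (1.5 nM final) in acetate buffer pH 5.5 with DTT and 0.01% Triton X-100; pin-transfer compounds; incubate 15 min RT; add Z-FR-AMC (2 uM final); read fluorescence every 30 s, using the 60 s intensity change.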
RE007 growth inh: less growth of the S. pombe RE007 Vpr strain; S. pombe RE007 Vpr strain, BacTiter-Glo ATP luminescence, 24 h; control for the full effect not named in the record; Potency, µM (titrated, usually from 92.2 µM), inactives show at the highest dose activity change, negative = less growth; 360,000 tested, 0.21% active; active = well fitted falling curve with a large enough effect; inconclusive = small, poorly fitted or top-dose-only effect; inactive = no such curve, though single readings can be large or run the other way;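 note: % is set by controls: 0 for no effect and ±100 for the full control effect; nearly all actives have a fitted effect of over 50% in size; the assay follows cell death caused by Vpr and the record does not say whether a fall means rescue or toxicity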
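Fission yeast RE007 carrying one integrated HIV-1 vpr copy, seeded at OD 0.01 in PMG+AL medium with 23 nL pinned compound. Grown 24 h at 30 degrees; viability read by BacTiter-Glo luminescence after 5 min.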
* hit, by the source's call; ? = inconclusive; . = no result given; & = joins results of further samples; [ ] = another dose, or the depositor's remark. Unless noted, calls come from the whole dose curve; as a rule, active = well fitted curve in the direction sought with a large enough effect; inconclusive = small, poorly fitted or top-dose-only effect, or another doubt; inactive = no such curve, though single readings can be large; an effect the other way counts as inactive or inconclusive. Potency is the fitted concentration of half-maximal effect.

structure	NS1 inh	StopGo reporter	Cruzain noTriton	SARS PLpro yeast	Lassa entry inh	Marburg entry inh	Cruzain Triton	RE007 growth inh
C/C(NCCCn1ccnc1)=C(\C#N)C(N)=O	-11%	-8%	-6%	0%	-2%	-1%[46.1 µM]	0.7%	2%
COC(=O)c1ccc(CNC(=O)COC(=O)/C=C/c2cc(OC)c(OC)c(OC)c2)cc1	.	-18%	.	-3%	21%	-22%	.	20%
CCOC(=O)n1c(=O)n(C)c2ccc(Br)cc21	.	-13%	.	-3%	-3%	-9%[46.1 µM]	.	3%
Cc1nnc(NC(=O)c2cccc(F)c2)s1	-10%	17%	-3%	-6%	2%	?	1.4%	-1%
O=C1/C(=C\c2ccc(O)c(O)c2)N=C2CCCCCN12	-4%	29%	.	0%	-22%	-19%[46.1 µM]	.	-11%
COc1ccc(S(=O)(=O)N2CCOCC2)cc1NC(=O)CN1CCCCCC1	.	5%	.	-1%	?	-19%[46.1 µM]	.	-11%
Cc1sc2nc(CSCC(=O)N(CCC#N)c3ccccc3F)[nH]c(=O)c2c1C	.	-15%	.	-2%	-14%	?	.	27%
O=C(O)CCCC(=O)Nc1cccc(C(=O)Nc2ccccc2C(=O)O)c1	1%	-6%	.	0%	-1%	-3%[46.1 µM]	.	35%
O=C1CSC(=Nc2cccc([N+](=O)[O-])c2)N1	-6%	-10%	.	-2%	.	.	.	-10%
Cc1ccc(CNc2ccc(CNc3ncn[nH]3)cc2)cc1	14%	4%	-3%	8%	2%	?	4.1%	5%
Cc1cc(C)n2nc(C(=O)Nc3nccs3)nc2n1	-2%	40%[activator]	6%	1%	14%	?	-1.8%	4%
COc1cc(C)c(CNc2cccc(C)c2)cc1C	-10%	.	16%	-1%	10%	-16%	1.2%	-7%
CCN(c1ccccc1)S(=O)(=O)c1ccc(NC(=O)c2cc(=O)c3cc(C)c(C)cc3o2)cc1	.	-10%	-7%	.	1%[46.1 µM]	-18%[46.1 µM]	-0.3%	.
COc1ccc(CNC(=O)c2cc3c(=O)n(Cc4ccco4)ccc3nc2C)cc1	.	-13%	1%	.	?	.	-4.0%	.
COC(=O)C(Cc1cnc(Cl)s1)(C(=O)OC)c1ccccc1[N+](=O)[O-]	6%	-7%	0%	-10%	-14%	?	-4.2%	-3%
CCOC(=O)c1sc(NC(=O)Cn2nnc3sc4c(c3c2=O)CCC(C(C)(C)C)C4)nc1C (stereo unspecified)	14%	14%	-24%	10%	0%	-10%	-11%	-8%
Cc1cccc(NC(=O)C(=O)NCC(c2ccc3c(c2)OCO3)N2CCN(c3ccccc3)CC2)c1 (stereo unspecified)	.	-25%	-11%	.	-21%[46.1 µM]	.	1.3%	.
O=C(NCCc1ccccc1)c1ccc2c(c1)CCN2S(=O)(=O)c1ccc(Br)cc1	.	-7%	?	.	-13%[46.1 µM]	?	-0.8%	.
CC(C)(C)NC(=S)NCCc1ccccc1	-21%	13%	1%	34%	?	-4%	-1.6%	-5%
Cc1ccc(C)c(S(=O)(=O)N2CCN(C(=O)Cn3[nH]c(=O)c4ccccc4c3=O)CC2)c1	.	-4%	.	-3%	0%	-10%[46.1 µM]	.	-15%
CCOc1ccc(NC(=O)c2c(NCc3ccc(C)o3)sc3c2CCCCC3)cc1	.	-12%	0%	.	11%[46.1 µM]	.	-16%	.
Cc1cc(C)c(S(=O)(=O)Nc2ccccc2C(=O)N2CCOCC2)c(C)c1	0%	-13%	.	1%	.	.	.	-7%
Cc1cc(C)nc(NC(=NCCc2c[nH]c3ccccc23)NC(=O)C(C)(C)C)n1	2%	?	.	0%	-8%	?	.	-21%
CN(C(=O)/C=C/c1ccc2c(c1)OCO2)c1ccccc1	.	42%[activator]	.	-2%	4%	-8%	.	-9%
Cc1cc(C)c(S(=O)(=O)/N=C2/C=C(SCC(=O)O)C(=O)c3ccccc32)cc1C	.	-24%	.	-15%	-19%[46.1 µM]	?	.	?
COc1ccc(OC)c(S(=O)(=O)NC2CCCCC2)c1	5%	89%[activator]	5%	5%	-3%	1%	-5.1%	7%
N#Cc1c(NC(=O)c2ccncc2)sc2c1CCC2	-17%	30%[activator]	-7%	-6%	-3%	7%	-14%	-9%
N#CC1=C2SCN(Cc3ccccc3)CN2C(=O)CC1c1ccc2c(c1)OCO2 (stereo unspecified)	-100%	-3%	-24%	3%	15%	1%&-2%	-4.1%	11%
O=C(CCCN=C1NS(=O)(=O)c2ccccc21)OCC(=O)c1ccccc1	.	15%	.	2%	12%	-8%[46.1 µM]	.	1%
COc1ccc(S(=O)(=O)N2CC(=O)Nc3ccccc32)cc1C	25%	-19%	.	10%	.	.	.	1%
S=C1NC(c2ccccc2)=NCN1c1ccccc1	-2%	15%	1%	28%	11%	?	2.7%	23%
N#Cc1ccccc1Cn1c(=O)n(C2CCCC2)c(=O)c2ccccc21	-14%	-28%	4%	-24%	-1%	-2%	-1.1%	-2%
C/C(N)=C(/C#N)C(=O)COC(=O)c1ccncc1	4%	18%	-14%	-1%	2%	2%	-0.4%	3%
O=C(O)c1ccc(N/N=C/c2ccc(F)c(F)c2)cc1	-31%	14µM*	-11%	-54%	6.3µM*	7.1µM*	-15%	?
COC(CNC(=O)c1cn(C)c2ccc(S(=O)(=O)N3CCOCC3)cc2c1=O)OC	0%	31%[activator]	.	-2%	.	.	.	13%
Cc1ccc(NC(=O)C2Cc3ccccc3C(=O)O2)cc1 (stereo unspecified)	.	63%[activator]	.	0%	10%	?	.	16%
COc1ccc(CNC(=O)Cn2nc(C)c3c(C)n(-c4ccccc4)nc3c2=O)cc1OC	.	-21%	-11%	.	5%[46.1 µM]	.	0.8%	.
CCOc1ncccc1C(=O)OCC(=O)Nc1ccc(S(=O)(=O)N2CCOCC2)cc1	-8%	-4%	13%	2%	.	.	-1.2%	-12%
COCCNC(=O)CCCn1c(=O)c2cc(OC)c(OC)cc2n(CC(=O)c2ccccc2)c1=O	.	-11%	.	1%	8%[46.1 µM]	0%[46.1 µM]	.	8%
CN1/C(=C/C2CC(=O)N(c3ccc([N+](=O)[O-])cc3)C2=O)C(C)(C)c2ccccc21 (stereo unspecified)	2%	-6%	?	3%[6.58 µM]	-10%	-1%	-3.6%	-21%
Cc1ccccc1N(C)S(=O)(=O)c1nnc(NC(=O)c2ccco2)s1	-3%	7%&6%	-10%	-3%	?	.	-2.7%	0%
COC(=O)C(NC(=S)N1CC2C[C@@H](C1)Cn1c2cccc1=O)C(C)C (stereo partly specified)	0%	4%	.	5%	15%[46.1 µM]	-1%[46.1 µM]	.	-4%
Cc1nn(-c2ccccc2)c(C)c1NC(=O)COc1ccc(F)cc1Cl	10%	20µM*	2%	-7%	-26%	?	-1.0%	1%
CCOc1ccc(S(=O)(=O)n2nc(C)c(S(=O)(=O)N3CCCCCC3)c2C)cc1	.	3%	11%	.	18%[46.1 µM]	.	-2.6%	.
O=C(O)/C=C/C(=O)Nc1cccc(C(F)(F)F)c1	-8%	-27%	10%	-26%	12%	-4%[46.1 µM]	-0.7%	-7%
CCCC[n+]1ccn(C2=C([O-])c3ccccc3C(=O)/C2=N\S(=O)(=O)c2ccc(Cl)cc2)c1	-4%	-15%	.	0%	.	.	.	-14%
C=CCN(Cc1ccc(OC)c(OC)c1)C(=O)N1CCOCC1	7%	-4%	.	0%	24%[46.1 µM]	2%[46.1 µM]	.	1%
O=C(Cn1cnc2c(oc3nc4c(cc32)CCCC4)c1=O)Nc1cccc(Cl)c1	18%	11%	.	1%	2%	5%[46.1 µM]	.	23%
Cc1cc(C)cc(OCC(=O)O/N=C(\N)Cc2ccc([N+](=O)[O-])cc2)c1	-5%	-12%	.	-2%	13%	-20%[46.1 µM]	.	4%
CCOc1ccc(NC(=O)CSc2nnc(C)n2CC2CCCO2)cc1 (stereo unspecified)	1%	-22%	3%	-1%	?	19%	2.7%	4%
COc1ccc(OC)c(NC(=O)Cn2c(=O)oc3cc(S(=O)(=O)NCc4ccccc4)ccc32)c1	.	24%	-8%	.	3%[46.1 µM]	.	-2.8%	.
Cc1nn(CC(=O)NCc2ccccc2)c(=O)c2ccccc12	-5%	-7%	6%	-2%	0%	18%	1.5%	8%
C/C(=N\OC(=O)Nc1ccc(Cl)cc1)c1ncc(C(F)(F)F)cc1N1CCOCC1	-45%	7%	-9%	-21%	4%	6%[46.1 µM]	-0.5%	-22%
O=C(COC(=O)c1cccs1)Nc1ccc(S(=O)(=O)N2CCOCC2)cc1	-7%	-16%	-10%	-13%	-1%	?	1.8%	0%
CCc1ccccc1NC(=O)c1ccc2c(c1)CCCN2S(C)(=O)=O	.	22%	4%	.	-14%[46.1 µM]	2%[46.1 µM]	3.9%	.
CC1CCN(c2c(NCC3CCC(C(=O)NCCCc4ccccc4)CC3)c(=O)c2=O)CC1 (stereo unspecified)	3%	-13%	.	0%	3%	-2%	.	-16%
O=C(CN1CCS(=O)(=O)CC1)N/N=C/c1cccc(C(F)(F)F)c1	1%	6%	.	?	5%[46.1 µM]	-19%[46.1 µM]	.	9%
CC(=O)Nc1ccc(-n2c(=O)c3ccccc3c3ccccc3c2=O)cc1	3%	28µM*	.	1%	?	-9%	.	-7%
O=C(CCc1ccccc1)NNC(=O)COc1ccccc1Cl	2%	-18%	.	0%	6%[46.1 µM]	-33%[46.1 µM]	.	11%
CCOc1ccc(-c2cn(-c3ccccc3OC)c(=S)[nH]2)cc1	?	-7%	.	1%	-17%[46.1 µM]	?	.	-6%
COC(=O)c1ccc[n+](CC(=O)Nc2ccc(OC(F)F)cc2)c1	.	-11%	.	-5%	-11%	1%[46.1 µM]	.	1%

Outcome played no part in choosing rows; about 4.7% have a hit in one of these screens.
